Screening data: PubChem, NMMLSC
Bead autofluor = counter-screen for toxin protease inhibitors: compound fluorescence | 360,000 compounds, 3.1% hits | fluorescence intensity (test concentration not listed) | compound autofluorescence counterscreen, microsphere flow cytometry; active compounds read high | AID 624483;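 active = at least 3 SD above the mean of all compounds, about 16000 in these data; inconclusive = too few beads counted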;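 also: 100 nL of 1 mM stock went into each well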
Numbers without * were called inactive; u = inconclusive. These rows are one share of the data; count on the stated rates, not on these rows.

Sample of the layout, seven compounds:
structure	Bead autofluor
Cc1cccc(CN2CCN(C3CN(C4CCCC4)S(=O)(=O)C3)CC2)c1 (configuration not stated)	4342
CCN(Cc1ccccc1)N=Nc1ccccc1	3544
CCc1nc2c(OCc3ccc(F)c(F)c3)cccn2c1N(C)C(=O)C1CC1	3882
Cc1cn([C@H]2C[C@H](O)[C@@H](/C=C/C(=O)NCCc3cccs3)O2)c(=O)[nH]c1=O	5833
C[C@@H]1CN([C@H](C)CO)S(=O)(=O)c2ccc(Br)cc2O[C@H]1CN(C)S(C)(=O)=O	3447
CN(Cc1ccc(Cl)cc1)C(C(=O)NC1CCCCC1)c1ccnc2ccccc12 (configuration not stated)	4748
CC1(C(=O)Nc2ccc3c(c2)OCCO3)CCN1C(=O)CC1CCCC1 (configuration not stated)	3488

The listing, from the start:
structure	Bead autofluor
Cc1cccc(CN2CCN(C3CN(C4CCCC4)S(=O)(=O)C3)CC2)c1 (configuration not stated)	4342
CCN(Cc1ccccc1)N=Nc1ccccc1	3544
CCc1nc2c(OCc3ccc(F)c(F)c3)cccn2c1N(C)C(=O)C1CC1	3882
Cc1cn([C@H]2C[C@H](O)[C@@H](/C=C/C(=O)NCCc3cccs3)O2)c(=O)[nH]c1=O	5833
C[C@@H]1CN([C@H](C)CO)S(=O)(=O)c2ccc(Br)cc2O[C@H]1CN(C)S(C)(=O)=O	3447
CN(Cc1ccc(Cl)cc1)C(C(=O)NC1CCCCC1)c1ccnc2ccccc12 (configuration not stated)	4748
CC1(C(=O)Nc2ccc3c(c2)OCCO3)CCN1C(=O)CC1CCCC1 (configuration not stated)	3488
O=C1Nc2ccccc2N=C(c2ccccc2)C1N(C(=O)c1ccnc2ccccc12)c1ccccc1 (configuration not stated)	4190

(further entries)
structure	Bead autofluor
CCOC(=O)[C@]12CCCC=C1N(Cc1ccc3c(c1)OCO3)C(=O)[C@H](CC(=O)NCCc1ccccc1OC)C2	6758
Cc1ccc2nc(COC(=O)c3cccnc3Cl)cc(=O)n2c1	3951
CN(C)C(=O)CNc1ccn2nc(-c3cccc(Cl)c3)cc2n1	3498
CCOC(=O)Cc1c(-c2cccc(Br)c2)nc2c3ccccc3ccn12	4540
CCCNC(=O)C1(C)CCN(C(=O)c2ccc(C)c(F)c2)C1 (configuration not stated)	3551
CN(C)CCCNc1nc2cc(-c3ccccc3CO)sc2c(=O)n1C	3491
Oc1c(N=Nc2nn[nH]n2)ccc2ccccc12	5650
COc1ccc(NC(=O)c2cc(-c3ccc(F)cc3OC)n[nH]2)cc1OC	3924

The listing continues:
structure	Bead autofluor
CN(C)c1ccc(-c2ccnc3c2CC(C)(C(=O)NCCC(F)(F)F)O3)cc1 (configuration not stated)	3766
CC1=C(C(=O)N(C(C)C)C(C)C)CC(CC(=O)NC2CCCCC2)C(=O)N1CCCN1CCCC1=O (configuration not stated)	6105
COc1ccc(CN2C(=O)C(CC(=O)NC(c3ccccc3)c3ccccc3)CC(C(=O)N(C)C)=C2C)cc1 (configuration not stated)	3531
COCCCn1c(SCC(=O)N2CCCC2=O)nc2ccccc2c1=O	3458
COc1ccc(-c2cc(C(=O)NCC3CCCCC3)[nH]n2)c(C)c1	3452
CSc1ccc(Cn2c(C)c(C(=O)NCc3ccc4c(c3)OCO4)sc2=O)cc1	4094
O=C(Nc1cc(S(=O)(=O)N2CCOCC2)ccc1OCC(F)(F)F)C1CCCC1	2900
CCOC(=O)N(C)[C@H]1C[C@H]2c3[nH]c4ccccc4c3CCN2C[C@H]1[C@H](C)O	6091

Additional entries follow.
structure	Bead autofluor
O=S1(=O)CCN(C2CCCC2)CC1	4076
CCNC(=O)C1(C)CCCN(C(=O)/C=C/c2ccccc2)C1 (configuration not stated)	3992
CCOC(=O)[C@]12CCC=C1N(Cc1ccco1)C(=O)[C@H](CC(=O)NCCCCc1ccccc1)C2	4251
Cc1ccc(NC(=O)C2(C)CCN2C(=O)Cc2ccc(C(C)(C)C)cc2)cc1C (configuration not stated)	3477
C/C(CC(=O)Nc1ccc(N(C)C)cc1)=N\NC(=O)c1ccccc1Cl	3541
C(=C\c1ccccc1)/CN1CCN(C(c2nnnn2C2CCCC2)C2CC2)CC1 (configuration not stated)	6030
O=C1C(=Cc2cn(-c3ccccc3)nc2-c2ccc(OCc3ccccc3F)cc2)SC(=S)N1CCS(=O)(=O)O	2905
CCCCN1C(=O)C(CC(=O)NC2CC2)CC(C(=O)N(C(C)C)C(C)C)=C1C (configuration not stated)	3540

(continued)
structure	Bead autofluor
OC[C@@H]1CN(CCN2CCOCC2)C[C@H](n2cnc3c(NC4CCC4)ncnc32)O1	3819
COCCN1C[C@@H](CO)O[C@@H](n2cnc3c(NCCO)ncnc32)C1	4011
O=C(Nc1ccc2c(c1)OCO2)c1ccc2sc([C@@H]3O[C@H](CO)[C@H](O)[C@H](O)[C@H]3O)nc2c1	3730
CC(=O)Nc1cc(-c2cccc(CO)c2)cn2c(-c3ccc(F)cc3)cnc12	3633
COCCc1ccc(OC2(C)CCN(Cc3ccc(OC)c4ccccc34)C2)cc1 (configuration not stated)	3871
CC1(c2nnnn2Cc2ccccc2)CCC(=O)N1CC1CCCCC1 (configuration not stated)	5860
NC(c1csc(NC(=O)Nc2ccccc2)n1)C1CCCCC1 (configuration not stated)	3982
COc1ccc(CC(N)c2csc(Nc3cc(Oc4ccccc4)ncn3)n2)cc1 (configuration not stated)	2864

(next part)
structure	Bead autofluor
Cc1ccc(-c2csc(C(O)c3ccc(F)cc3)n2)cc1C (configuration not stated)	2825
Cc1ccc(Cc2c(C3CCCCC3)nc3c(C)cc(Br)cn23)cc1	4555
CN(Cc1ccccc1)C(=O)[C@@H]1CCCN1C(=O)[C@@H]1CCCN1C(=O)c1cccc2ccccc12	5007
CC(C)(C)C(=O)N1Cc2cc(-c3ccccc3)ccc2-n2nncc2C1	6600
CC(C)CN(C(=O)C1=COCCO1)c1c(N)n(Cc2ccccc2)c(=O)[nH]c1=O	4132
COc1cc(CNC(=O)c2cc(-c3cc(Cl)ccc3C)n[nH]2)cc(OC)c1	3740
COc1cccc(C(NC(C)=O)c2nc(-c3ccc(N(C)C)cc3)cs2)c1 (configuration not stated)	3691
Cc1ccc(S(=O)(=O)N2CCCCC2)cc1NC(=O)COC(=O)C1CC1	2917

Next compounds
structure	Bead autofluor
CC1(C(=O)NS(=O)(=O)c2ccccc2Cl)CCN1C(=O)Cc1cccs1 (configuration not stated)	3776
COc1ccc(CN2CC[C@@H]3CN(C(C)=O)[C@H](c4ccccc4Br)C[C@@H]32)cc1	7214
CCCCNC(=O)C1(C)CCCCN1C(=O)c1ccc2ccccc2n1 (configuration not stated)	3918
COc1ccc(-c2c(C#N)cnc(C)c2C)c(O)c1OC	3000
COCCNC(=O)C1Cc2c(-c3ccc(NC(C)=O)cc3)ccnc2O1 (configuration not stated)	3948
COCCNc1ncnc2c1ncn2[C@H]1CN(Cc2ccc(F)cc2)C[C@@H](CO)O1	2946
Cc1cccnc1C(NC(=O)C1CCN(Cc2cn(C)c3ccccc23)CC1)c1ccc(Cl)cc1 (configuration not stated)	4092
COc1cc(Cl)ccc1OC1(C)CCN(Cc2ccc(SC)cc2)C1 (configuration not stated)	3672

Additional compounds follow.
structure	Bead autofluor
COC(=O)[C@]12CCCCC=C1N(CCC1=CCCCC1)C(=O)[C@H](CC(=O)NCCCN1CCCC1=O)C2	5853
O=C(NC1CCCC1)C1c2ccccc2OCC(=O)N1Cc1ccco1 (configuration not stated)	5423
CC1OC(=O)c2cc3ccccc3nc21 (configuration not stated)	4006
CCCCNC(=O)C1(C)CCCCN1C(=O)c1c(C)noc1C (configuration not stated)	3451
COC(=O)c1ccc2c(=O)n(CCN3CCOCC3)c(SCC(=O)Nc3ccccc3OC)nc2c1	3642
C[C@@H]1CN([C@@H](C)CO)C(=O)CCCn2nncc2CO[C@H]1CN(C)C(=O)c1ccncc1	3715
CCOC(=O)[C@]12Cc3cc(C)ccc3[C@H]1N(C1CCCCC1)C(=O)c1cc(OC)ccc12	5358
CCc1nc2c(OCc3cccc(OC)c3)cccn2c1N(C)C(=O)c1ccccc1F	2974

(continued)
structure	Bead autofluor
C[C@H]1CN([C@@H](C)CO)S(=O)(=O)c2ccc(Br)cc2O[C@@H]1CN(C)C(=O)Cc1cccnc1	2941
O=C(N/N=C/c1ccccc1C(=O)O)c1cccc(S(=O)(=O)N2CCOCC2)c1	u
COCCNC(=O)C1(C)CCN(C(=O)c2cccnc2Oc2ccccc2)C1 (configuration not stated)	3347
Cc1ccc(-c2nc3ccc(C)cn3c2Cc2ccccc2C(F)(F)F)cc1	6063
CS(=O)(=O)c1ccc(-c2csc(C(O)c3cccc(Cl)c3)n2)cc1 (configuration not stated)	3479
C[C@@H]1CN([C@H](C)CO)S(=O)(=O)c2ccc(-c3ccc(C#N)cc3)cc2O[C@H]1CN(C)C(=O)Nc1cc(F)ccc1F	3212
COc1ccc(S(=O)(=O)NC(=O)C2(C)CCN2C(=O)c2c(C)noc2C)cc1 (configuration not stated)	2910
CC(C)Oc1ccc(F)cc1-c1cc(C(=O)NC2CCCCC2)[nH]n1	3027

(continued)
structure	Bead autofluor
CCCCCCCCN1C(=O)[C@H](CC(=O)NCc2ccc(OC)c(OC)c2)C[C@@]2(C(=O)OC)CCCCC=C12	5956
O=C(Cc1cccc2ccccc12)NCC(=O)N1CCN(CC(=O)Nc2ccc(F)cc2)CC1	3073
CC1(C(=O)NCC2CCOCC2)Cc2c(-c3cccc(C(F)(F)F)c3)ccnc2O1 (configuration not stated)	2888
CC(C)(C)c1ccc(CC(=O)N2CCC2(C)C(=O)NCCC#N)cc1 (configuration not stated)	3036
c1ccc(COc2ncnc3c2ncn3CCCN2CCN(c3ncccn3)CC2)cc1	2838
COc1ccc(C=C2NC(=O)NC2=O)cc1O	2873
COc1ccc(NC(=O)CCn2c(=S)[nH]c3ccccc3c2=O)cc1Cl	3761
Cc1ccc(Cl)cc1N1C(=O)CC(Sc2ccccc2N)C1=O (configuration not stated)	3536

The listing continues.
structure	Bead autofluor
CC1(C(=O)Nc2ccc(Cl)c(Cl)c2)CCN1CCc1ccccc1 (configuration not stated)	3377
O=C(NNC(=O)C(c1ccccc1)c1ccccc1)c1ccccc1O	2780
CC(=O)Nc1ccc(-c2ccnc3c2CC(C)(C(=O)Nc2ccc(Cl)c(C(F)(F)F)c2)O3)cc1 (configuration not stated)	2939
C[C@@H](O)CNC(=O)c1[nH]cnc1C(=O)Nc1ccc(CNC(=O)OC(C)(C)C)cc1	3771
CC(=O)NCCNc1nc2cc(-c3ccc(C(=O)N4CCN(C)CC4)cc3)sc2c(=O)n1C	3675
CCOC(=O)C1CCCN(C(=O)c2cccc(S(=O)(=O)NCc3ccccc3)c2)C1 (configuration not stated)	2834
CCOC(=O)C1=C(COC(=O)CNS(=O)(=O)c2ccc(C)c(C)c2)NC(=O)NC1C (configuration not stated)	3425
CC1(C(=O)NS(=O)(=O)C2CC2)CCN(C(=O)c2ccccc2C(F)(F)F)C1 (configuration not stated)	3570

Further records
structure	Bead autofluor
FC(F)(F)c1ccccc1Cc1c(C2CCCCC2)nc2ccc(Cl)cn12	6131
CC1=C(C(=O)N2CCCCCC2)CC(CC(=O)NCCN2CCOCC2)C(=O)N1CCCN1CCCC1=O (configuration not stated)	6151
CNc1cnc(-c2ccc(F)c(F)c2F)cn1	3934
COCCNC(=O)C1(C)CCCN(Cc2csc(-c3ccc(Cl)cc3)n2)C1 (configuration not stated)	3691
CCOc1ccc(NC(=O)CN(C)C(=O)c2cc3c(s2)CCC3)cc1OCC	3515
CC(C)(C)OC(=O)N1CCc2onc(-c3ccccc3F)c2C1=O	3797
COc1ccc(OC)c(NC(=O)C2(C)CCN2C(C)C)c1 (configuration not stated)	3405
CCOC(=O)C1(C)CCCN1C(=O)c1cccc(F)c1 (configuration not stated)	3606

Further entries:
structure	Bead autofluor
CC(C)(C)n1nnnc1C(c1cccs1)N1CCN(C/C=C/c2ccccc2)CC1 (configuration not stated)	4202
CCc1cccc(NC(=O)COC(=O)c2c(-c3ccccc3)noc2C)c1	4151
O=C1NC[C@@H](CCCCN2C[C@H](Cc3ccccc3)N(CCc3ccccc3)C(=O)C2=O)N(CCc2ccccc2)C1=O	5560
CN[C@H]1C[C@@H](c2ccccc2)N(C(C)=O)C[C@H]1CO	5736
CC(=O)Nc1cccc(-c2ccnc3c2CC(C(=O)Nc2cccc(OC(F)(F)F)c2)O3)c1 (configuration not stated)	3606
CC1(C(=O)NS(=O)(=O)c2cccc(Cl)c2)CCN1C(=O)Cc1ccccc1 (configuration not stated)	3518
CCOC(=O)[C@]12CCC=C1N(CCC1=CCCCC1)C(=O)[C@H](CC(=O)NCc1cccc(C(F)(F)F)c1)C2	6251
COc1cc(-c2cnc3c(NC=O)cc(-c4cccc(C(F)(F)F)c4)cn23)cc(OC)c1OC	3832

(next part)
structure	Bead autofluor
CC(C)COC(=O)N1CCCCC1c1cc(C(=O)NCc2cccnc2)no1 (configuration not stated)	3838
O=C(O)c1ccc(S(=O)(=O)NN=Cc2c[nH]c3ccccc23)cc1	2826
O=C1C(=O)C(Cl)=C(Cl)C(Cl)=C1Cl	4278
CCc1nc2ccc(C(=O)Nc3ccc(OC)c(OC)c3)cn2c1N(CC)Cc1cccc(Br)c1	4001
O=C(Nc1ccc(F)c(Cl)c1)c1cc(C2CCCCN2C(=O)c2ccccc2)on1 (configuration not stated)	4190
CC1(Cc2cccc(C(F)(F)F)c2)C(=O)Nc2c(Cl)cccc21 (configuration not stated)	4151
COc1ccc(CC(N)c2csc(NC(=O)CCc3ccccc3)n2)cc1 (configuration not stated)	4247
